High-throughput results from PubChem.
Vaccinia Venus = qHTS for Stage-Specific Inhibitors of Vaccinia Orthopoxvirus: Venus Reporter Primary qHTS. Vaccinia virus Venus reporter expression, fluorescence. Potency, µM (titrated, usually from 36.5 µM), for inactives: at the highest dose activity change, negative = inhibition, usual class: inhibitors. 0.46% of 330,000 active; active means well fitted inhibition curve with a large enough effect; inconclusive means small, poorly fitted or top-dose-only effect; inactive means no such curve, though single readings can be large or run the other way; tested in A549 cells; note: nearly all actives have a fitted effect of over 30% in size; inactives centre near -10
Vaccinia mCherry = qHTS for Stage-Specific Inhibitors of Vaccinia Orthopoxvirus: mCherry Reporter Primary qHTS; Vaccinia virus mCherry reporter infection, fluorescence; about a quarter of the inactives have no number; Potency, µM (titrated, usually from 36.5 µM), without a hit: at the top dose activity change, negative = inhibition, actives largely listed as inhibitors; 0.63% of 310,000 active; AID 720579, 2013; active = well fitted inhibition curve with a large enough effect; inconclusive = small, poorly fitted or top-dose-only effect; inactive = no such curve, though single readings can be large or run the other way; tested in A549 cells; note: nearly all actives have a fitted effect of over 35% in size; inactives centre near -10
* = called active by the depositor; i = inactive; ? = inconclusive; . = no result given; & = joins results of further samples; [ ] = dose if it differs, or a comment. % is set by controls: 0 for no effect and ±100 for the full control effect; potency is the fitted concentration of half-maximal effect. Rows were taken by chance, and some 0.82% of all compounds hit somewhere here.

Sample of the layout (2 entries):
SMILES | Vaccinia Venus | Vaccinia mCherry
Cc1ccc(CNC(=O)C2CCCN(S(=O)(=O)c3cccnc3)C2)cc1 (configuration not stated) | -7% | -8%
Cc1ccc(C(C)C)c(OCC(=O)NN=C2CCCC(=O)C2)c1 | 9% | -12%

The list itself, repeating the preview:
SMILES | Vaccinia Venus | Vaccinia mCherry
Cc1ccc(CNC(=O)C2CCCN(S(=O)(=O)c3cccnc3)C2)cc1 (configuration not stated) | -7% | -8%
Cc1ccc(C(C)C)c(OCC(=O)NN=C2CCCC(=O)C2)c1 | 9% | -12%
CCc1ccccc1NC(=O)C(=O)NCC(c1cccnc1)N1CCc2ccccc21 (configuration not stated) | -17% | -13%
CC(C)(C)OC(=O)N[C@@H](C(=O)OC(C)(C)C)c1ccc2c(c1)OCO2 | -10% | 0%
CCOC(=O)C(NC(=O)CC)(Nc1sc(C)c(CC)c1C#N)C(F)(F)F (configuration not stated) | -16% | -13%
CC(C)N(C)c1ncnc2c1ncn2[C@H]1CN(Cc2cccnc2)C[C@@H](CO)O1 | -16% | -8%
COc1ccc(CN2Cc3cc(-c4cccc(F)c4)ccc3-n3nncc3C2)cc1 | 11% | i
Cc1cc(-c2ccccc2)nc(=O)[nH]1 | -2% | -4%
COCCCNc1nc2nonc2nc1N1CCN(Cc2cccc(C)c2)CC1 | -12% | i
CC1CCN(C(c2ccc(N(C)C)cc2)c2nnnn2Cc2ccccc2)CC1 (configuration not stated) | -9% | .
CCOC(=O)N1CCN(S(=O)(=O)c2ccc(C(=O)Nc3sc4c(c3C(=O)OC)CCN(C)C4)cc2)CC1 | ? | -5%
Cc1ccc(NC(=O)CN2CCCCCC2)cc1[N+](=O)[O-] | 0% | -5%

Whole records, quoted from the list:
CCOC(=O)C(NC(=O)CC)(Nc1sc(C)c(CC)c1C#N)C(F)(F)F (configuration not stated) in the list: Vaccinia Venus = -16%; Vaccinia mCherry = -13%
Cc1ccc(CNC(=O)C2CCCN(S(=O)(=O)c3cccnc3)C2)cc1 (configuration not stated) in the list: Vaccinia Venus = -7%; Vaccinia mCherry = -8%

Later entries
SMILES | Vaccinia Venus | Vaccinia mCherry
CCOC(=O)c1ccc(NC(=O)N2CCOCC2)cc1 | 21% | -9%
CCCS(=O)(=O)N1CCCC(C(=O)Oc2ccc(C)c(C)c2)C1 (configuration not stated) | -26% | -3%
O=c1c(Cl)c(NCCO)cnn1-c1cccc(Cl)c1 | -21% | -7%
COc1ccc(NC(=O)C2CC(c3cccc(Br)c3)=NO2)cc1OC (configuration not stated) | -23% | -26%
O=C(/C=C/Nc1ccccc1)c1cnc(-c2ccccc2)s1 | -8% | .
COc1ccc(NC(=O)[C@@H]2CCCN2C(=O)[C@@H]2Cc3ccccc3CN2C(=O)OC(C)(C)C)cc1 | -17% | i
CCCOc1ccccc1OCC(=O)Nc1ccc(S(=O)(=O)N2CCCCC2)cc1 | -24% | -26%
CCCNC(=O)c1cc2c(C(F)(F)F)nn(C)c2s1 | -25% | .
Cc1ccc(S(=O)(=O)N2C[C@H]3C(=O)C[C@@H](c4ccc(Cl)cc4)N(S(=O)(=O)c4ccccc4C)[C@H]3C[C@H]2c2ccc(Cl)cc2)cc1 | -17% | i
CCOc1ccc(-c2cc(C(=O)Nc3ccc4c(c3)OCCO4)c3ccccc3n2)cc1 | -4% | .
COc1ccc(NC(=O)CN(C)S(=O)(=O)c2cccs2)cc1 | -16% | .
COCCn1nnnc1CN1CCC(Cc2ccccc2)CC1 | -9% | i
O=C(NNC(=O)c1ccc(-c2ccccc2)cc1)c1ccccc1 | -2% | -9%
CCC(=O)c1ccc(OCC(=O)N(CC)CC(=O)Nc2ccccc2OC)cc1 | -8% | -16%
CCOC(=S)SCc1cn2ccc(C)cc2n1 | -10% | -16%
Cc1ccc(-c2cc(C(=O)N3CCOCC3)c3cc(C)ccc3n2)cc1 | -8% | -6%
CCc1cccc(NC2c3ccccc3C(=O)N2c2cccnc2)c1 (configuration not stated) | -5% | -8%
CCOCCCNC(=O)C(NC(=O)Cc1cccs1)c1ccc(Cl)cc1 (configuration not stated) | -6% | -8%
COc1ccccc1CN1CCN(C(=O)COc2ccccc2)CC1 | 3% | -8%
O=C(CNCC1CCCO1)N1CCCCCC1 (configuration not stated) | -4% | -8%
CCOC(=O)C1C(c2ccc(C(=O)O)cc2)NC(=O)NC1(O)C(F)(F)F (configuration not stated) | -6% | -15%
CSc1ncnc2c1ncn2CCCN(C)Cc1ccco1 | 0% | -19%
CCOC(=O)c1c(S(=O)(=O)N2CCC(C(=O)NCc3cccc(C)c3)CC2)c(C)n(C)c1C | -3% | 2%
CCOC(=O)N1CCC(Nc2c(N3CCN(c4cc(Cl)ccc4C)CC3)c(=O)c2=O)CC1 | -1% | 5%
COc1ccc(OC)c(CCNC(=O)c2cnn(-c3ccccc3Cl)c2C2CCN(C(=O)OC(C)(C)C)CC2)c1 | -6% | -7%
O=C(NC1CCCC1)C(c1ccccc1)N(Cc1ccccc1)C(=O)c1csnn1 (configuration not stated) | -1% | -5%
CC(C)CC(=O)NC(=S)Nc1ccc(N2CCOCC2)c(Cl)c1 | -12% | ?
CC(C)=CCc1c(C)nc2ccccc2c1C(=O)O | -13% | .
O=C(Nc1ccccc1)N1N=C(c2cccs2)CC1c1cccs1 (configuration not stated) | -18% | -22%
COc1ccc(-c2ccc(SCC(=O)NCc3ccc4c(c3)OCO4)nn2)cc1OC | -6% | -5%
COc1ccc(OC)c(S(=O)(=O)N2CCC3(CC2)OCCN3S(=O)(=O)c2ccccc2)c1 | -7% | -12%
C[C@@H](C(=O)Nc1ccc2ccccc2c1)[C@@H]1C[C@@]1(C)[C@@H](NC(=O)c1cccnc1)c1ccccc1 | ? | -7%
CCn1c(O)c(N=NC(=O)CNC(=O)/C=C/c2ccccc2)c2ccccc21 | -7% | 0%
CCCNC(=O)C1(C)CCN(C(=O)c2ccc(OC(F)F)cc2)C1 (configuration not stated) | -3% | 18%
COc1ccc(N2CCN(C(=O)COc3ccc4c(C)cc(=O)oc4c3)CC2)cc1 | -1% | -13%
CCN(Cc1ccccc1)C(=O)Cn1c(=O)n(-c2ccc(F)c(Cl)c2)c(=O)c2sc3ccccc3c21 | -16% | -7%
O=C1CC(c2ccccc2)CC(O)=C1C=Nc1ccccc1Cl (configuration not stated) | 0% | -12%
COc1ccc(/C(C)=N\NC(=O)CSc2nnc(C)s2)cc1 | -12% | -20%
O=C(NCC1CCCO1)C(c1ccc(F)cc1)N(CCCN1CCOCC1)C(=O)c1ccc(-c2ccccc2)[nH]1 (configuration not stated) | -18% | -2%
O=C(c1ccc(-c2nnc(-c3ccccc3)o2)cc1)N1CCCCCC1 | -5% | -9%
Cc1cc(C(=O)C(=O)N(C)C)c(C)n1-c1ccc(Cl)cc1 | -16% | i
CCOc1ccc(C(=O)c2cn(Cc3cccc(OC)c3)c3cc4c(cc3c2=O)OCO4)cc1 | -10% | -2%
O=S(=O)(O)c1ccc(Cl)c(Cl)c1 | 2% | -28%
Cc1nc(C)c(-c2ccc(SCC(=O)Nc3ccc(F)c(F)c3)nn2)s1 | ? | ?
Cc1cc(C)c(C(N)=O)c(Nc2cccc(Cl)c2C)n1 | -5% | -14%
CCOC(=O)C(C(C)=O)c1nc(C)nc2c1nnn2Cc1ccccc1Cl (configuration not stated) | -3% | 2%
CC(C)CNC(=O)C(=O)NC1CCCC1 | -8% | -12%
O=C(Cc1ccc(-n2c(=O)c3sccc3n(Cc3ccc(F)cc3)c2=O)cc1)NCc1ccco1 | -23% | -17%

Some of the entries above, set out differently:
structure,Vaccinia Venus,Vaccinia mCherry
O=C(NCC1CCCO1)C(c1ccc(F)cc1)N(CCCN1CCOCC1)C(=O)c1ccc(-c2ccccc2)[nH]1 (configuration not stated),-18%,-2%
O=C(c1ccc(-c2nnc(-c3ccccc3)o2)cc1)N1CCCCCC1,-5%,-9%
Cc1cc(C(=O)C(=O)N(C)C)c(C)n1-c1ccc(Cl)cc1,-16%,i
CCOc1ccc(C(=O)c2cn(Cc3cccc(OC)c3)c3cc4c(cc3c2=O)OCO4)cc1,-10%,-2%
O=S(=O)(O)c1ccc(Cl)c(Cl)c1,2%,-28%

Remaining list, next part:
SMILES | Vaccinia Venus | Vaccinia mCherry
COc1ccc(-c2cc(=O)oc3c(C)c(OCC(=O)NCCCn4ccnc4)ccc23)cc1 | 4% | 5%
O=C(CCc1ccccc1)NNC(=O)c1ccccc1Br | -18% | 0%
COc1ccc(NC(=O)C2=C(C)Nc3nc(SC)nn3C2c2cc(OC)ccc2OC)cc1 (configuration not stated) | -9% | -15%
O=C1CC(c2ccco2)Cc2nc(Nc3ccc(F)cc3)ncc21 (configuration not stated) | -15% | .
COc1ccc(OC)c(N(CC(=O)N2CCN(c3cc(Cl)ccc3C)CC2)S(C)(=O)=O)c1 | -17% | -28%
CC(/C=N/n1c(-c2ccccn2)n[nH]c1=S)=C\c1ccccc1 | -4% | i
O=c1cc(NCc2ccc3c(c2)OCO3)[nH]c(=O)n1-c1ccc(Cl)cc1 | -21% | -21%
CC(C)CN(C(=O)CCCOc1ccc(Cl)cc1Cl)c1c(N)n(Cc2ccccc2)c(=O)[nH]c1=O | -15% | -8%
CC(C)(C)c1ccc(C(=O)NCCC(=O)N2CCCC2)cc1 | -1% | -8%
COc1cc2cc(CN(C(=O)NC3CCCCC3)C3CCCC3)c(=O)[nH]c2cc1OC | 9% | -4%
C=C(C)Cn1c(N2CCCC2)nc2c1c(=O)n(C)c(=O)n2C | 3% | -9%
CCN(CC)S(=O)(=O)c1ccc(OC)c(NC(=O)c2cccs2)c1 | -5% | i
CCOC(=O)Cn1c2[n+](c3ccccc31)CC(O)CS2 (configuration not stated) | -20% | -3%
O=C(CNc1ccccc1F)Nc1cccc2ccccc12 | -1% | -21%
O=C(Nc1ccncc1)c1cc(C2CCCCN2C(=O)CCCc2ccccc2)on1 (configuration not stated) | -9% | 1%
CC(C)CCNC(=O)C1c2ccccc2Oc2ccccc21 | 10% | -13%
Cc1ccccc1C(=O)NCC(=O)OC(C)C(=O)Nc1ccnn1C(C)C (configuration not stated) | 1% | -15%
COC(=O)C1(Cc2ccc(O)cc2)OC(=O)C(O)=C1c1ccc(O)cc1 (configuration not stated) | 0% | 1%
Cc1ccc(NC(=O)Cc2noc3ccccc23)c(C)c1 | -10% | -15%
N#C/C(=C\c1ccncc1)c1nc2ccccc2c(=O)[nH]1 | 3% | -6%
O=C(C/C=N\OCc1c(Cl)cccc1Cl)Oc1ccc(Cl)cc1Cl | -7% | -7%
Cc1ccc(N(C(=O)CCCC(=O)Nc2ccccn2)C(C(=O)NC2CCCC2)c2ccc(O)cc2)cc1C (configuration not stated) | -13% | i
Cc1ccc(Cl)cc1NC(=O)CSc1nncn1-c1ccccn1 | -6% | -6%
C[C@@H]1O[C@@H](O[C@@H]2C=C3CC[C@@H]4C(CC[C@]5(C)[C@@H](c6ccc(=O)oc6)CC[C@]45O)[C@@]3(C)CC2)[C@H](O)[C@H](O)[C@H]1O (some centres not stated) | ? | 32µM*
COc1ccc(C(CNC(=O)c2ccc(Cl)c(NC(=O)c3cccs3)c2)N2CCCC2)cc1 (configuration not stated) | -25% | -15%
COc1ccccc1N(CC(=O)Nc1ccccc1C)S(C)(=O)=O | -11% | -10%
O=C(Nc1nnc(S(=O)(=O)N2CCCCCC2)s1)c1ccccc1 | -13%&-15% | -14%&-12%
Cc1cc(-c2ccc(S(=O)(=O)Nc3cccc(C(F)(F)F)c3)s2)on1 | -4% | -7%
CCCC(=O)Nc1ccc(Nc2ccccc2)cc1 | -9% | i
CN1C(=O)c2ccccc2C(C(=O)O)C1c1cccc(F)c1 (configuration not stated) | -7% | -10%
Fc1ccccc1N1CCN(CC2CC3C=CC2C3)CC1 (configuration not stated) | -19% | 0%
CC(C)c1ccc(NC2CCCN(C(=O)c3ccc(Cn4cnnn4)cc3)C2)cc1 (configuration not stated) | 1%[7.34 µM] | ?
COCCNC(=O)C[C@@H]1C[C@H]2c3cc(NC(=O)Nc4ccc(F)cc4)ccc3O[C@H]2[C@H](CO)O1 | -15% | i
CC(=O)NC(c1ccccc1)c1nc(-c2cccc(C(F)(F)F)c2)cs1 (configuration not stated) | -7% | -15%
CNS(=O)(=O)c1cc(NC(=O)c2cnc(SC)n2-c2ccccc2)ccc1C | -14% | -17%
O=C(NCCCN1CCCCC1)C1(S(=O)(=O)c2ccc(Cl)cc2)CC1 | -1% | -23%
CCCn1c(N)c(N(CCOC)C(=O)/C=C/c2cccc(Cl)c2)c(=O)[nH]c1=O | 1% | 0%
O=C(/C=C/c1ccccc1)Nc1nc2n(n1)C(c1ccc(F)cc1)C=C(c1ccccc1)N2 (configuration not stated) | -7% | -8%
Cc1cc(C)n(-c2ccc(C(=O)Nc3nnc(C)s3)cc2)n1 | ? | -11%[1.46 µM]
CN(C)c1cccc(C(=O)N2CCC(c3ccncc3)CC2)c1 | -23% | -18%
CCCCCn1c(=N)c(S(=O)(=O)c2ccc(Br)cc2)cc2c(=O)n3cccc(C)c3nc21 | -6% | i
Cn1c(-c2ccc3c(c2)OCO3)cc(=O)c2ccccc21 | -10% | -8%
Cc1cc(OCC(=O)NCc2ccccn2)c2c(C)c(C)c(=O)oc2c1 | -12% | -6%
COCCNC(=O)C1CC(=O)N(C2CCCCC2)C1 (configuration not stated) | -11% | i
CCOC(=O)N1CCN(C(=O)CSc2nnc(-c3ccc(C(C)(C)C)cc3)o2)CC1 | ? | 5.6µM*
Cc1c(Cl)cccc1N1C(=O)CC(NNC(=O)c2cccnc2)C1=O (configuration not stated) | -4% | -4%
